S aureus helic: blocks Staphylococcus aureus DNA helicase. purified S. aureus helicase, fluorescence unwinding assay; about half of the hits fall short of the stated cut. inhibition, %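 (tested at about 80 µM)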. 120,000 compounds, 0.05% hits;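 active = both duplicates at 50% or more, or one of them with a favoured structure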;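 also: 0% = mean of negative control wells and 100% = mean of positive control wells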
MgrA-DNA mod: alters Staphylococcus aureus MgrA binding to DNA; fluorescence polarization; inhibition, %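 (about 10 µg/mL by stock and volumes)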; 84,000 compounds, 0.13% hits;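 active = above 50% in either of two replicates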;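 also: 0% = protein plus DNA without compound and 100% = DNA alone without protein; higher means less MgrA bound to DNA so lower polarization; one replicate is shown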
* = called active by the depositor; · = no result given. A portion of the library; the hit share may differ from the screen's.

canonical_smiles | S aureus helic | MgrA-DNA mod
CC(=O)Oc1ccc(/C=C2/C(=N)N3C(=NC2=O)SN=C3SC(C)C)cc1 | 12.0 | 1.8
CC(C)=CCSc1nc2sc3c(c2c(=O)[nH]1)CCCC3 | 21.0 | 2.4
CC1(C)CC2CC(C)(CN2C(=O)COC(=O)c2cccs2)C1 (stereo not drawn) | -19.0 | 0.2
CCOC(=O)CSc1nnc2c3ccccc3n(C)c2n1 | 24.0 | ·
Cc1cc2c(cc1C)CSC(c1ccc(N(C)C)cc1)SC2 | · | -2.5
CC1=C(C#N)C(=O)N(CC(C)O)C(=O)/C1=C/c1ccc(-c2ccc(Br)cc2)o1 (stereo not drawn) | 6.0 | 29.9
COc1ccc(Br)cc1Br | · | -0.2
O[C@H]1CCCC2CCCCC21 (stereo partly drawn) | 8.0 | ·
CCc1ccc(N2C(=O)N(C)c3ccccc3S2(=O)=O)cc1 | 12.0 | ·
CC(C)(C)c1ccc(Cn2c(N)nc3ccccc32)cc1 | 10.0 | ·
Cc1ccc(C(=O)OC2CCCN(C)C2)s1 (stereo not drawn) | 4.0 | 3.4
CCCc1nc2ccccc2n1C(C)C | 8.0 | ·
CCNC(=O)CSc1ccc(Cl)cc1 | 12.0 | 0.1
O=c1[nH]c(NCCO)nc2ccccc12 | 2.0 | -1.5
Cc1c(Cl)cccc1NC(=O)NC1Cc2ccccc2C1 | · | -3.8
COc1ccc(CN(Cc2cccn2C)C(=O)c2cc3cc(OC)ccc3[nH]2)cc1 | · | 1.9
CC(O)CN(Cc1ccc(Cl)c(Cl)c1)CC(C)O (stereo not drawn) | 6.0 | -4.6
OCC1CCCN(Cc2ccc(Br)o2)C1 (stereo not drawn) | -1.0 | 3.5
Cn1nc(-c2cc(C(F)(F)F)cc(C(F)(F)F)c2)c2ccccc2c1=O | · | 0.7
COCCNS(=O)(=O)c1ccc(C(=O)OC)n1C | -17.0 | ·

Reprinted from the part before: five entries, then new ones.
canonical_smiles | S aureus helic | MgrA-DNA mod
COc1ccc(CN(Cc2cccn2C)C(=O)c2cc3cc(OC)ccc3[nH]2)cc1 | · | 1.9
CC(O)CN(Cc1ccc(Cl)c(Cl)c1)CC(C)O (stereo not drawn) | 6.0 | -4.6
OCC1CCCN(Cc2ccc(Br)o2)C1 (stereo not drawn) | -1.0 | 3.5
Cn1nc(-c2cc(C(F)(F)F)cc(C(F)(F)F)c2)c2ccccc2c1=O | · | 0.7
COCCNS(=O)(=O)c1ccc(C(=O)OC)n1C | -17.0 | ·
Cc1nn(Cc2ccccc2)c(C)c1C(=O)OCC(=O)c1cc(C)n(C2CC2)c1C | -11.0 | ·
COc1ccccc1CNC(=O)CNC(=O)Cn1ccc2ccccc2c1=O | 6.0 | ·
CCCn1c(SCC2CCCCO2)nc2ccccc21 (stereo not drawn) | 7.0 | ·
Cc1ccc(C)c(NC(=O)C2CC(O)CN2C(=O)OC(C)(C)C)c1 (stereo not drawn) | -2.0 | -1.1
CSCc1ccc(C(=O)NCc2ccccc2)cc1 | -10.0 | ·
CCOC(=O)Cn1c(=O)oc2cc(S(=O)(=O)N3c4ccccc4CC3C)ccc21 (stereo not drawn) | 6.0 | -1.5
Cc1cc2nnc(SCC(=O)Nc3ccc(F)cc3)n2c2ccccc12 | · | -1.1
O=C(O)c1cccc(-c2ccc(O)cc2)c1 | -1.0 | ·
Cc1ccc(NC(=S)NN(C)C)cc1 | · | 0.8
CC(C)N1C/C(=C\c2ccc(N3CCOCC3)cc2)C(=O)/C(=C/c2ccc(N3CCOCC3)cc2)C1 | -98.0 | ·
Cc1ccccc1C1C(=O)c2ccccc2N(C)C1=O (stereo not drawn) | -1.0 | ·
O=C(O)COCC(=O)Nc1cc(C(F)(F)F)ccc1N1CCCC1 | · | -0.5
CC(=O)N1c2ccc(S(=O)(=O)NCC3CCC(C(=O)NCc4ccccn4)CC3)cc2CC1C (stereo not drawn) | -24.0 | ·
N#CC(C#N)=CNc1ccc2oc3ncccc3c(=O)c2c1 | 19.0 | ·
CC(=O)Nc1ccc(NC(=O)CC(CC(=O)O)c2ccccc2)cc1 (stereo not drawn) | · | -1.1
OCc1cn(Cn2cc(CO)c(-c3ccccc3)n2)nc1-c1ccccc1 | -17.0 | 0.0
O=C1c2ccc3c4c(ccc(c24)C(=O)N1c1nccs1)C(=O)N(c1nccs1)C3=O | 3.0 | 2.5
CCCNC(=O)Cn1nc(C(F)(F)F)c(Br)c1C | -9.0 | ·
CN(C)/C=N/c1nc(-c2ccc3ccccc3c2)cs1 | -10.0 | ·
Nc1ccc(Oc2ccc3nc(-c4ccc(N)cc4)[nH]c3c2)cc1 | 10.0 | ·

(list continues)
canonical_smiles | S aureus helic | MgrA-DNA mod
Cc1cccc(N2C(=O)C3ON(c4ccccc4)C(c4ccco4)C3C2=O)c1 (stereo not drawn) | 1.0 | ·
COC(=O)C(C)Sc1ncnc2c1c(-c1ccccc1)cn2-c1ccc(OC)cc1 (stereo not drawn) | -5.0 | 0.3
Cc1cc(-c2ccccc2)nc2oc3c(=O)[nH]cnc3c12 | · | 3.9
CCN(CC(=O)NC1CCS(=O)(=O)C1)Cc1nc2sc3c(c2c(=O)[nH]1)CCC3 (stereo not drawn) | -16.0 | ·
CCOc1ccc(NC(=O)NN2C(C)CCCC2C)cc1 (stereo not drawn) | 24.0 | 3.1
CCOC(=O)Cn1c(-c2cccs2)cc2ccccc21 | -2.0 | 0.2
CC(C)NC(=O)CC1Oc2ccccc2NC1=O (stereo not drawn) | 13.0 | ·
CCc1ccccc1NC(=S)N1CCC(N(C)C(C)C)CC1 | -1.0 | ·
C=CCn1c(NCc2cn(-c3ccccc3)nc2-c2cccs2)nc2ccccc21 | 22.0 | ·
Cc1nc(C)n(CC(O)COc2ccc3c4c(c(=O)oc3c2)CCC4)n1 (stereo not drawn) | 4.0 | -2.0
CCS(=O)(=O)c1ncc(Cl)c(C(=O)Nc2ccc(Cl)cc2)n1 | -5.0 | ·
O=C(O)/C=C/C1=Cc2ccccc2OC1 | -16.0 | ·
CCOC(=O)C1(Nc2nccs2)Sc2ccccc2NC1=O (stereo not drawn) | -11.0 | ·
O=C(CN(Cc1ccco1)C(=O)Cc1c(F)cccc1Cl)Nc1ccccc1Br | -2.0 | ·
Cc1c(CC(C)C)nc(C#N)c(N)c1-c1ccccc1 | 14.0 | -1.2
CC(C)NC(=O)Cc1c(C(=O)O)[nH]c2ccccc12 | 16.0 | ·
CCn1cc(C(=O)N(C)c2ccc(OC)cc2)c2cc(OC)c(OC)cc2c1=O | 22.0 | ·
COc1ccc(N2C(=O)CC(SCC(=O)O)C2=O)cc1 (stereo not drawn) | 6.0 | -7.3
O=C(NC1CCCCC1)N1CCN(c2ccccn2)CC1 | 6.0 | 4.5
Cc1cc(NC(=O)Cc2c(C(=O)O)nnn2-c2ccc(Br)cc2)no1 | -9.0 | ·

(list continues)
canonical_smiles | S aureus helic | MgrA-DNA mod
O=C(Nc1cccnc1)c1cccc(S(=O)(=O)N2CCc3ccccc32)c1 | 32.0 | ·
Cc1ccc(C2=CSc3nnc(-c4ccccc4Br)n3N2)cc1 | -14.0 | ·
COc1cc(C2NC(=O)NC(C)=C2C(=O)OC2CCCCCCC2)cc(OC)c1OC (stereo not drawn) | · | -1.7
Nc1cc(=O)n(-c2ccccc2)[nH]1 | 3.0 | -0.9
CCOC(=O)CC(=O)c1ccn(C)n1 | 19.0 | -1.9
CC(C)(C)c1ccc(-c2nc(CSc3ccccn3)no2)s1 | · | 0.7
CC1CCC(NC(=O)CCc2nc3sc4c(c3c(=O)[nH]2)CCCC4)CC1 (stereo not drawn) | -10.0 | ·
Cc1[nH]c2ccc(C(=O)NCCCN3CCN(c4ccccc4F)CC3)cc2c1C | 6.0 | ·
Cc1cc(N2C(=O)C=CC2=O)no1 | · | 2.6
COc1cc(/C=C2\SC(=S)N(c3ccc([N+](=O)[O-])cc3)C2=O)cc(Br)c1O | · | 7.7
O=C(NCC1COC2(CCCCC2)O1)Nc1ccccc1 (stereo not drawn) | 13.0 | ·
CSc1nn2c(=O)c(-c3ccccc3)nnc2s1 | 21.0 | ·
O=c1c2c(nc(SCCO)n1C1CCCC1)-c1ccccc1CC21CCCC1 | -2.0 | ·
O=C(O)C(Cc1ccccc1)N1C(=O)C2C3C=CC(C3)C2C1=O (stereo not drawn) | 0.0 | ·
C[C@H]1NC(=O)NC1=O | · | -1.2
S=C1NC(=S)NC(c2ccc(Br)cc2)N1 | 30.0 | ·
CON(C)S(=O)(=O)c1cccc(C(=O)N2CCN(S(=O)(=O)c3ccccc3Br)CC2)c1 | 9.0 | ·
CC(NC(=O)C1CCC1)c1ccc2c(c1)OCO2 (stereo not drawn) | 21.0 | -1.8
Cc1c(-c2ccccc2)c(CN2CCN(C)CC2)n2ccccc12 | 0.0 | ·
O=S(Cc1c(Cl)cccc1Cl)c1ccc(C(F)(F)F)cn1 (stereo not drawn) | · | 0.2

The listing continues.
canonical_smiles | S aureus helic | MgrA-DNA mod
COc1ccccc1NC(=O)C(NS(=O)(=O)c1cccc2nsnc12)c1ccccc1 (stereo not drawn) | -19.0 | ·
Cc1ccc(C)c(NS(=O)(=O)c2ccccc2)c1 | 8.0 | -1.4
CC(CC(=O)NCC1CCCO1)c1ccccc1 (stereo not drawn) | 8.0 | -0.1
COc1cc(C2C(C(=O)OC(C)C)=C(C)NC3=C2C(=O)CC(c2ccc(Cl)cc2)C3)ccc1OC(C)=O (stereo not drawn) | · | 1.4
COc1ccc(NC(=O)Nc2ncn(Cc3cccc(C(F)(F)F)c3)n2)cc1OC | 18.0 | -0.2
COc1ccc(CNC(=S)NN)cc1 | · | 2.2
Cc1nnc(SCC(=O)N(C)C2CCS(=O)(=O)C2)n1Cc1ccccc1 (stereo not drawn) | 9.0 | ·
CCSC(SCC)=C(C#N)C(=O)Nc1ccccc1 | 6.0 | -0.3
O=C(c1cc2c(=O)n3ccccc3nc2s1)N1CCCC1 | 22.0 | ·
CCc1ccc(CN2CCN(C(=O)c3ccccc3)CC2)cc1 | 11.0 | -0.7
CN(C)S(=O)(=O)c1ccc(C(=O)OCc2nc3ccccc3c(=O)[nH]2)cc1 | -6.0 | ·
CC1CC(C)CN(C(=O)Cn2c(=O)oc3ccccc32)C1 (stereo not drawn) | -21.0 | ·
CCN1CCCC1CNC(=O)Nc1cn(CC(C)C)c(=O)c2ccccc12 (stereo not drawn) | 22.0 | ·
N#CC1=C(N)NC(SCc2ccccc2)=C(C#N)C12CCCCC2 | -1.0 | 1.2
CCNc1nc(NCC)nc(Nn2cnnc2)n1 | · | 0.9
Cn1c(CO)nc2ccccc21 | 13.0 | -2.7
CC(Oc1ccc(-c2ccc(C#N)cc2)cc1)C(N)=O (stereo not drawn) | 5.0 | ·
COc1ccc(CNC(=O)C(C)OC(=O)c2ccccc2)cc1 (stereo not drawn) | -8.0 | ·
O=C(NC1c2ccccc2Oc2ccccc21)c1cccnc1 | 12.0 | -1.6
COc1ccc(-c2noc(CC(=O)N3CCC(C)CC3)n2)cc1 | -18.0 | 1.4

(listing goes on)
Every second line gives: S aureus helic	MgrA-DNA mod
CCN(C(=O)c1cn(CC)c(=O)c2cc(OC)c(OC)cc12)c1cc(C)ccc1C
  36.0	·
CN(C)c1ccc(N=Cc2nc(-c3ccccc3)oc2OC(=O)c2ccccc2)cc1
  -130.0	·
O=C(c1ccc(S(=O)(=O)N2CCc3ccccc3C2)cc1)N1CCOCC1
  17.0	·
CSc1nc(C)cc(ON=C(C)C)n1
  7.0	1.4
CCOC(=O)C1=C(CN2CCCc3ccccc32)NC(=O)NC1c1ccccc1 (stereo not drawn)
  -16.0	·
CCc1cccc(NC(=O)CCS(=O)(=O)c2cccc3nonc23)c1
  -6.0	·
CCCCn1c(=NC(C)=O)c(C#N)cc2c(=O)n3cccc(C)c3nc21
  -2.0	·
OCCn1c(SCCOc2ccccc2)nc2ccccc21
  19.0	0.4
O=C(CCN1C(=O)c2ccccc2S1(=O)=O)Nc1ccc2c3c(cccc13)CC2
  -4.0	-1.4
CN(C)C(Cc1cccc(S(=O)(=O)N2CCOCC2)c1)C(=O)c1ccccc1 (stereo not drawn)
  -9.0	·
CCC1(C)C(C#N)(C#N)C1(C#N)C#N
  13.0	17.2
O=C(O)c1cc(-c2cccc(O)c2)c2c(-c3ccccc3)[nH]nc2n1
  8.0	-3.8
Brc1ccc(-c2cnc(/C=C/C=C/N3CCOCC3)s2)cc1
  ·	1.5
OCC1CC2CCCC[N+]2(Cc2ccccc2)O1 (stereo not drawn)
  ·	-0.5
O/N=C\c1ccccc1Oc1ccc(Cl)c(F)c1
  ·	0.2
COc1cccc2c1Oc1nc(-c3ccccc3)nc(SC(F)F)c1C2
  -36.0	·
CC1CCCC(NC(=O)c2ccccc2)C1C (stereo not drawn)
  -4.0	·
O=C(c1ccccc1)c1cc2ccccc2oc1=O
  -1.0	-0.3
COc1ccc(C2CC(=O)C3=C(C2)NC(C)=C(C#N)C3c2cc(OC)c(OC)cc2Br)cc1 (stereo not drawn)
  ·	-0.2
CN(C)S(=O)(=O)c1cccc(CSc2nnc(C(F)(F)F)n2C)c1
  0.0	·

Entries of single compounds as entered above. Order of screens: S aureus helic	MgrA-DNA mod
Record of CCSC(SCC)=C(C#N)C(=O)Nc1ccccc1 = 6.0	-0.3
Record of Cc1nc(C)n(CC(O)COc2ccc3c4c(c(=O)oc3c2)CCC4)n1 (stereo not drawn) = 4.0	-2.0
Record of CC(C)(C)c1ccc(-c2nc(CSc3ccccn3)no2)s1 = ·	0.7
Record of COC(=O)C(C)Sc1ncnc2c1c(-c1ccccc1)cn2-c1ccc(OC)cc1 (stereo not drawn) = -5.0	0.3
Record of Cc1cc(N2C(=O)C=CC2=O)no1 = ·	2.6

The results go on:
Every second line gives: S aureus helic	MgrA-DNA mod
O=C(Nc1ccccc1)OCc1cncs1
  ·	1.8
Clc1ccc(-c2cc3ccccn3c2)cc1
  24.0	·
O=S(=O)(c1ccc2c(c1)OCO2)N1CCOCC1
  5.0	7.8
Cc1ccc(C(=O)NC(C)C(C)(C)C)o1 (stereo not drawn)
  -10.0	0.6
Cc1onc(-c2c(Cl)cccc2Cl)c1C(=O)SC1=NC(C)N2C(SC(=O)c3c(-c4c(Cl)cccc4Cl)noc3C)=NC(C)N12 (stereo not drawn)
  ·	2.0
